Assay outcomes from PubChem.
A1 inhib – A1 inhibition. MEF A1-2A-BIM cells, caspase-Glo luminescence, 3 h; percent of clofoctol signal, DMSO as zero. caspase activation, % (test concentration not listed). actives 0.51% (n = 21,000);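 active = most replicate scores above 10, or exactly half above 10 with mean activity above 10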;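 also: effector caspase 3 and 7 activity cleaving a DEVD luciferin substrate; 50 nL library stock added to about 30 µL; numbers are from one replicate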
BJeLR viability – lowers viability of BJeLR cells; BJeLR fibroblasts viability, CellTiterGlo ATP luminescence, 48 h; HRASV12, hTERT and SV40 LT/ST transformed; viability loss activity score, % (test concentration not listed); actives 0.64% (n = 30,000); in the data active = viability loss activity score above about 50%; about a fifth of its hits are not listed in these tables;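 also: higher score means fewer live cells and less ATP luminescence; stock transfer was 50 or 100 nL into about 30 µL; 0% = vehicle wells and 100% = a reference killing control; one replicate is shown; the record names a cut of 85%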
Numbers without * were called inactive; · = no result given. A portion of the library; the hit share may differ from the screen's.

molecule | A1 inhib | BJeLR viability
CCN1C(=O)CS/C1=N\N1CCOCC1 | 0.0 | -2.9
C=CCNS(=O)(=O)c1cccc2nonc12 | 0.1 | 0.7
Cc1ccc(S(=O)(=O)N(C)C[C@@H]2Oc3c(NC(=O)Nc4c(C)noc4C)cccc3C(=O)N([C@H](C)CO)C[C@@H]2C)cc1 | · | -1.1
COc1ccc(NC(=O)N(C)C[C@H]2Oc3c(NS(=O)(=O)c4ccc(F)cc4)cccc3C(=O)N([C@@H](C)CO)C[C@@H]2C)cc1 | · | -0.5
COc1cc(/C=N\n2cn[nH]c2=S)cc(OC)c1OC | -0.1 | -3.7
CCSc1nc2sc3c(c2c(=O)n1CC)CCc1ccccc1-3 | 0.0 | 5.6
COc1ccc(Cc2nn3c(Cc4ccccc4)nnc3s2)cc1 | · | 1.6
Cc1cc(=O)n2nc(N(C)CC(=O)N3CCCCC3)sc2n1 | 0.4 | -1.9
Cc1cc(C(=O)Nc2cccc3c2O[C@H](CN(C)S(=O)(=O)c2ccc(Cl)cc2)[C@H](C)CN([C@H](C)CO)C3=O)n(C)n1 | · | 1.6
C[C@H](CO)N1C[C@H](C)[C@@H](CN(C)C(=O)NC2CCCCC2)Oc2ccc(NC(=O)NC3CCCCC3)cc2C1=O | -0.3 | -3.0
COc1ccc(S(=O)(=O)Nc2cccc3c2O[C@H](CN(C)CC2CCCCC2)[C@H](C)CN([C@@H](C)CO)C3=O)cc1 | · | -3.5
CC(C)NC(=O)Nc1cccc2c1O[C@H](CN(C)C)[C@H](C)CN([C@@H](C)CO)C2=O | · | -0.1
CCOc1ccc(NC(=O)c2cc(-c3ccc(F)cc3)[nH]c2C)cc1 | 0.4 | 0.1
C[C@H](CO)N1C[C@H](C)[C@H](CN(C)C(=O)Nc2cccc3ccccc23)Oc2ccc(NC(=O)Nc3ccc(C(F)(F)F)cc3)cc2C1=O | 0.8 | -7.3
CC(NC(=O)c1ccncc1)c1ccccc1 (centres undefined) | 0.2 | 0.8
COc1ccc(NC(=O)N(C)C[C@@H]2Oc3c(NC(=O)Nc4ccc5c(c4)OCO5)cccc3C(=O)N([C@H](C)CO)C[C@@H]2C)cc1 | · | 0.0
CCc1ccc(OC(=O)c2ccc(C)cc2)cc1 | -2.6 | -1.0
CCc1nc2oc(C(=O)c3ccccc3)c(N)c2c2c1COC(C)(C)C2 | -0.3 | 1.4
CC(C)NC(=O)N(C)C[C@H]1Oc2ccc(NC(=O)CCCCCC(=O)Nc3ccccc3N)cc2C(=O)N([C@H](C)CO)C[C@@H]1C | · | -0.6
Cc1nc2ccccc2c(=O)n1NCc1cccs1 | -0.2 | -2.3
Cc1ccc(-c2ccc(CCC(=O)O)n2-c2cc(C)cc(C)c2)cc1 | 0.5 | 3.0
O=C(O)CCCC[C@@H]1SC[C@@H]2NC(=O)N[C@@H]21 | -0.4 | 0.8
O=CN1CCN(CC(O)Cn2c3ccccc3c3ccccc32)CC1 (centres undefined) | 0.2 | -3.4
CCOc1ccccc1N(C)C(=O)c1cc(S(=O)(=O)N(CC)c2ccccc2)ccc1F | 0.3 | 5.2
CC1CCN(C(=O)Cn2cc(SCC(=O)N3CCc4ccccc43)c3ccccc32)CC1 | -0.6 | -6.1
C[C@H]1CN([C@@H](C)CO)C(=O)c2cccc(NS(=O)(=O)c3ccccc3)c2O[C@H]1CN(C)S(=O)(=O)c1ccc(F)cc1 | · | 0.6
C[C@@H]1CN([C@@H](C)CO)C(=O)c2cccc(NS(C)(=O)=O)c2O[C@H]1CN(C)C(=O)NC1CCCCC1 | · | 2.8
Cc1ccc(S(=O)(=O)N(C)C[C@H]2Oc3ccc(NS(=O)(=O)c4cccs4)cc3C(=O)N([C@@H](C)CO)C[C@H]2C)cc1 | 0.2 | -0.4
Cc1ccc(CSCC2COC(c3cccs3)=N2)cc1 (centres undefined) | 0.0 | 2.6
C[C@@H]1CN([C@@H](C)CO)C(=O)c2cccc(NC(=O)C3CCOCC3)c2O[C@@H]1CN(C)Cc1ccc2c(c1)OCO2 | · | -9.0
FC(F)(F)c1cccc(NC(=S)Nc2cc(-c3cccs3)[nH]n2)c1 | 1.4 | 7.3
Cc1ccc(S(=O)(=O)N(C)C[C@@H]2Oc3ccc(NC(=O)Cc4ccccc4)cc3C(=O)N([C@H](C)CO)C[C@@H]2C)cc1 | 0.8 | -2.1
Fc1ccc(NC(=S)NCCCN2CCCCCC2)cc1Cl | · | 1.9
Cc1ccc(S(=O)(=O)Nc2ccc3c(c2)C(=O)N([C@@H](C)CO)C[C@@H](C)[C@H](CN(C)C(=O)Nc2c(C)noc2C)O3)cc1 | -0.4 | 4.6
O=C1NC(c2ccc(Br)cc2)Oc2ccccc21 (centres undefined) | 0.4 | -0.6
CC(C)NC(=O)N(C)C[C@@H]1Oc2c(NC(=O)Nc3ccccc3)cccc2C(=O)N([C@@H](C)CO)C[C@H]1C | · | -2.6
Cc1cc(C(=O)NC(C)C)n(-c2ccccc2)n1 | · | 0.6
O=c1oc2ccccc2cc1O | 0.7 | -0.6
C[C@H](CO)N1C[C@H](C)[C@@H](CN(C)S(C)(=O)=O)Oc2ccc(NC(=O)Cn3cnnn3)cc2C1=O | 0.1 | -0.9
C=CCc1ccccc1OCC(O)CNC(C)C (centres undefined) | -0.3 | -0.3
CCN1C(=O)/C(=C2\C=Cc3ccccc3N2CC)SC1=S | 0.3 | 5.7
COc1ccc2c(c1OC)C(=O)OC2Nc1nc2ccc(OC(F)(F)F)cc2s1 (centres undefined) | -3.4 | 0.7
N#CCC(c1ccccc1)C(C#N)c1ccc(Br)cc1 (centres undefined) | -0.4 | 2.0
N#Cc1c(NC(=O)c2cc(-c3cccs3)on2)sc2c1CCC2 | · | 5.6
COc1ccc([C@@]2(O)c3c(ccc(/C=C/C4(C)CCC(C)(C)CO4)c3O)NC(=O)[C@@H]2OC)cc1 (some centres undefined) | -0.6 | -4.7
C[C@H](CO)N1C[C@H](C)[C@H](CN(C)S(=O)(=O)c2ccc(Cl)cc2)Oc2c(NC(=O)Nc3ccc4c(c3)OCO4)cccc2C1=O | · | -2.2
O=C(NCCc1ccccc1)c1cc(-c2ccco2)on1 | · | 4.3
CC(C)S(=O)(=O)c1cscc1NC(=O)Nc1ccccc1 | 0.0 | 3.4
O=C(Cc1ccccc1)N1CCN=C1SCc1ccccc1 | · | 0.8
C[C@H]1CN([C@@H](C)CO)C(=O)c2cccc(NS(=O)(=O)c3cccs3)c2O[C@@H]1CN(C)S(=O)(=O)c1ccc(Cl)cc1 | · | -3.2

Some of the entries so far, as labelled records.
> CC(C)S(=O)(=O)c1cscc1NC(=O)Nc1ccccc1
- A1 inhib: 0.0
- BJeLR viability: 3.4
> Cc1cc(C(=O)NC(C)C)n(-c2ccccc2)n1
- A1 inhib: ·
- BJeLR viability: 0.6

Following part
| structure | A1 inhib | BJeLR viability |
| --- | --- | --- |
| COc1c(C(C)C)oc2cc3oc(=O)ccc3cc12 | -0.5 | -5.6 |
| Cc1ccc(S(=O)(=O)N(C)C[C@H]2Oc3ccc(NC(=O)CCCCCC(=O)Nc4ccccc4N)cc3C(=O)N([C@@H](C)CO)C[C@@H]2C)cc1 | · | 20 |
| Cc1nc(-c2ccccc2)sc1-c1nnc(-c2cccc3ccccc23)o1 | 0.3 | -4.2 |
| CN(CCCn1cnc2c([nH]c3ccccc32)c1=O)C1CCCCC1 | 0.4 | 1.1 |
| C[C@H]1CN([C@@H](C)CO)C(=O)c2cc(NC(=O)Nc3ccccc3)ccc2O[C@@H]1CN(C)Cc1ccc(Oc2ccccc2)cc1 | 0.0 | -3.5 |
| COc1ccc(S(=O)(=O)N(CCO)c2ccccc2CN(C)C/C=C/c2ccc(Cl)cc2)cc1 | -0.7 | 12 |
| CCOC(=O)N1CCc2c(sc3ncn(Cc4ccc(Cl)cc4)c(=O)c23)C1 | -1.0 | -1.0 |
| C[C@@H]1CN([C@H](C)CO)C(=O)c2cccc(NS(=O)(=O)c3ccc(F)cc3)c2O[C@H]1CN(C)Cc1ccccc1 | · | 2.5 |
| C[C@@H]1CN([C@@H](C)CO)C(=O)c2cc(NS(C)(=O)=O)ccc2O[C@@H]1CN(C)S(C)(=O)=O | 0.0 | -0.6 |
| O=C(Nc1nc2ccccc2n1Cc1ccc(Cl)cc1)C1CCCCC1 | -0.5 | 18 |

Quoted at random: three entries already listed, in no set order.
| structure | A1 inhib | BJeLR viability |
| --- | --- | --- |
| Cc1nc(-c2ccccc2)sc1-c1nnc(-c2cccc3ccccc23)o1 | 0.3 | -4.2 |
| C[C@@H]1CN([C@H](C)CO)C(=O)c2cccc(NS(=O)(=O)c3ccc(F)cc3)c2O[C@H]1CN(C)Cc1ccccc1 | · | 2.5 |
| C[C@@H]1CN([C@@H](C)CO)C(=O)c2cc(NS(C)(=O)=O)ccc2O[C@@H]1CN(C)S(C)(=O)=O | 0.0 | -0.6 |

Following part:
| structure | A1 inhib | BJeLR viability |
| --- | --- | --- |
| Cc1nn(C)c2sc(C(=O)N(Cc3ccccn3)Cc3ccccn3)cc12 | 0.2 | -1.9 |
| Cc1noc(C)c1NC(=O)Nc1ccc2c(c1)C(=O)N([C@H](C)CO)C[C@H](C)[C@@H](CN(C)CC1CCCCC1)O2 | 0.7 | -4.9 |
| C[C@H]1CN([C@@H](C)CO)C(=O)c2cc(NS(=O)(=O)c3cccs3)ccc2O[C@H]1CN(C)S(=O)(=O)c1ccc(F)cc1 | -0.2 | -1.6 |
| Cc1c(O)c(=O)n(-c2ccccc2)n1C | -0.4 | 1.2 |
| O=C(CSc1ccc(-c2ccncc2)nn1)NC1CCCC1 | 0.6 | 0.9 |
| C[C@@H]1CN([C@H](C)CO)C(=O)c2cccc(N(C)C)c2O[C@H]1CN(C)S(=O)(=O)c1ccc(Cl)cc1 | · | -7.7 |
| COc1ccc(S(=O)(=O)Nc2ccc3c(c2)C(=O)N([C@H](C)CO)C[C@@H](C)[C@@H](CN(C)S(=O)(=O)c2cccs2)O3)cc1 | 0.8 | 3.6 |
| Cc1cc(C(=O)Nc2cccc3c2O[C@H](CN(C)C(=O)Nc2c(C)noc2C)[C@H](C)CN([C@H](C)CO)C3=O)n(C)n1 | · | 3.1 |
| C[C@@H]1CN([C@@H](C)CO)C(=O)c2cc(NS(=O)(=O)c3ccc(Cl)cc3)ccc2O[C@@H]1CN(C)Cc1ccc(C(=O)O)cc1 | -0.7 | -0.1 |
| O=C1CC(c2ccc(O)cc2)Oc2cc(O)cc(O)c21 (centres undefined) | -1.9 | 12 |
| CCOc1ccc(NC(=S)NC(c2ccccc2)c2ccccc2)cc1 | -0.3 | -1.0 |
| CCc1ccc(OCC(=O)Nc2ccc(OC)cc2)cc1 | -0.2 | -3.8 |
| C[C@@H]1CN([C@H](C)CO)C(=O)c2cccc(NS(=O)(=O)c3cccs3)c2O[C@@H]1CN(C)S(=O)(=O)c1ccc(F)cc1 | · | 5.3 |
| COc1ccc(S(=O)(=O)N(C)C[C@@H]2Oc3c(NS(=O)(=O)c4cn(C)cn4)cccc3C(=O)N([C@@H](C)CO)C[C@@H]2C)cc1 | · | -1.3 |
| COc1ccc(OC)c2c1CC(C)(C)n1c(-c3ccc(Cl)cc3)nnc1-2 | 0.5 | -0.1 |
| CCN1CNC(=S)N(C2CCCCC2)C1 | 0.9 | 4.7 |
| C[C@@H]1CN([C@H](C)CO)C(=O)c2cc(NC(=O)CCC(F)(F)F)ccc2O[C@@H]1CN(C)C(=O)Nc1ccc(C(F)(F)F)cc1 | 0.7 | -1.3 |
| CNc1cc(NC)c2ncnc3c2c1C(=O)c1ccccc1-3 | -0.6 | -8.1 |
| CCOC(=O)c1nnn2c1nc(Sc1nc3ccccc3o1)c1ccccc12 | 2.5 | -2.1 |
| C[C@@H]1CN([C@@H](C)CO)C(=O)c2cc(NC(=O)CCCN(C)C)ccc2O[C@H]1CN(C)Cc1ccc(Oc2ccccc2)cc1 | -0.5 | 0.5 |
| CCOC(=O)c1cc(S(=O)(=O)N(CC)c2ccccc2)cn1C | -0.2 | -8.6 |
| CCc1ccnc(NC(=O)Nc2ccccc2C(C)(C)C)c1 | · | 2.4 |
| C[C@@H]1CN([C@H](C)CO)C(=O)c2cc(NS(=O)(=O)c3ccccc3)ccc2O[C@H]1CN(C)C(=O)Nc1ccc(F)cc1 | -0.6 | 7.6 |
| COc1ccc(C2=NOC(C(=O)NCc3ccccc3)C2)cc1 (centres undefined) | · | 17 |
| CCCn1c(CCC(=O)N2CCc3ccccc3C2)nc2cccnc21 | · | -1.7 |
| Cc1ccccc1NC(=O)Nc1sc(NS(=O)(=O)c2ccccc2)nc1C | · | 6.3 |
| C[C@H](CO)N1C[C@H](C)[C@H](CN(C)Cc2ccncc2)Oc2c(NS(=O)(=O)c3ccc(F)cc3)cccc2C1=O | · | -4.0 |
| COc1ccc(NC(=O)Nc2ccc3c(c2)C(=O)N([C@@H](C)CO)C[C@@H](C)[C@@H](CN(C)C)O3)cc1 | 0.2 | 0.4 |
| Clc1ccc(-c2csc(COc3ccc4nonc4c3)n2)cc1 | -0.1 | -1.4 |
| C[C@@H]1CN([C@H](C)CO)C(=O)c2cccc(NS(=O)(=O)c3cccs3)c2O[C@@H]1CN(C)Cc1ccc(Cl)c(Cl)c1 | · | -3.8 |
| Cc1noc(C)c1NC(=O)Nc1cccc2c1O[C@H](CN(C)S(=O)(=O)c1cn(C)cn1)[C@@H](C)CN([C@@H](C)CO)C2=O | · | 2.0 |
| CC(C)(C)c1ccc(OCC(=O)NC(c2ccccc2)c2ccccc2)cc1 | -1.1 | 17 |
| COc1ccc(S(=O)(=O)Nc2cccc3c2O[C@H](CN(C)Cc2ccc(-c4ccccc4)cc2)[C@H](C)CN([C@H](C)CO)C3=O)cc1 | · | -6.9 |
| C[C@@H]1CN([C@H](C)CO)C(=O)c2cccc(NC(=O)c3ccc(-c4nccs4)cc3)c2O[C@@H]1CN(C)S(C)(=O)=O | · | -1.8 |
